# High-throughput results as filed in PubChem BioAssay.
# Sfp inh – Sfp phosphopantetheinyl transferase inhibition | Q9F4F7 | Biochemical Sfp PPTase activity, qHTS | Potency, µM, without a hit: max response, negative = inhibition, hits mostly inhibitors | 310,000 tested, 3.5% active | AID 1490; active = well fitted inhibition curve with a large enough effect; inconclusive = small, poorly fitted or top-dose-only effect, or another doubt; inactive = no such curve, though single readings can be large or run the other way;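 note: the enzyme is Sfp with the accession as filed and its product quenches rhodamine fluorescence; potency is the fitted concentration of half-maximal effect; 0% = enzyme reaction without inhibitor and -100% = no enzyme wells; top concentration of the series not given in the record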
#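 With Hepes-Na pH 7.6 buffer containing 10 mM MgCl2, Sfp (15 nM) modified BHQ-2-YbbR (12.5 uM) using rhodamine-CoA (5 uM). Two reads 30 minutes apart at 525/598 nm yielded each well's rate.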
# D2 PAM – positive allosteric modulators of human D2 dopamine receptor. 360,000 tested, 0.23% active. DiscoveRx D2 beta-arrestin cells, luminescence, 90 min; 100% = 57 uM dopamine signal. P14416. potentiation, % (test concentration not listed). AID 624464; active = potentiation of 50% or more; inconclusive = 30% to 50%; inactive = 30% or less;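 note: compound concentration not given in the record; tested on top of an EC20 dose of dopamine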
# Target sequence (P14416 whole entry, looked up): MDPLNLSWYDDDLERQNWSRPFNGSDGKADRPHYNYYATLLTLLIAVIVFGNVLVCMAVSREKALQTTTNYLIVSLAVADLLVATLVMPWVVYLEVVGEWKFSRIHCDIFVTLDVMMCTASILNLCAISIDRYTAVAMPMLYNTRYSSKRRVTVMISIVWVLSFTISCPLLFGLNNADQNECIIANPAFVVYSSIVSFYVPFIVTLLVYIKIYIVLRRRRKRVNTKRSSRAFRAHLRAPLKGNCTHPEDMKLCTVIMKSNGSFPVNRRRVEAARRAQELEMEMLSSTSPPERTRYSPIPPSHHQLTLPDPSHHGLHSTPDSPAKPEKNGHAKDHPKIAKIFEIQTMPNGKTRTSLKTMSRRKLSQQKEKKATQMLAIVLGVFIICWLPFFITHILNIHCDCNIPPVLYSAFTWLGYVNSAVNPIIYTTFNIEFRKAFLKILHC
#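 PathHunter D2 cells, attached overnight at 37 deg C, received compound in DMSO plus dopamine at EC20 (50 nM final) for 90 min at 37 deg C. Beta-arrestin recruitment was read as luminescence after 1 h with detection reagent at ambient temperature.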
# D2 ag – activates the human D2 dopamine receptor. AID 624465. 360,000 tested, 0.084% active. activation, % (concentration not given with the values). DiscoveRx PathHunter D2 beta-arrestin, luminescence, 90 min; 100% = 57 uM dopamine signal. P14416; in the data active = activation above about 40%; inconclusive = about 15% to 40%; inactive = below about 15%; note: compound concentration not given in the record; the text of the record calls up to 30% inactive
#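 DiscoveRx PathHunter D2 beta-arrestin cells (2,100/well) attached overnight, then compound-stimulated 90 min at 37 C in HBSS/10 mM HEPES/0.1% Tween-20 buffer; beta-galactosidase complementation read by luminescence after 1 h at ambient temperature. Dopamine 57 uM final (EC100) as control.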
# Six1-Eya2 inh – Six1/Eya2 interaction inhibition | Q15475+O00167 | activity change, % (test concentration not listed) | 360,000 tested, 0.56% active | AlphaScreen GST-Six1/His-Eya2 binding, biochemical; stronger effect = lower value; control for the full effect not named in the record; in the data active = activity change below about -65%; inconclusive = about -30% to -65%; inactive = above about -30%; note: % is set by controls: 0 for no effect and ±100 for the full control effect; compound concentration not given in the record
#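 Homogeneous AlphaScreen proximity assay pairing GST-Six1 with His-tagged Eya2 (added as 5X mix: 250 nM and 500 nM) in 50 mM Tris pH 8.0, 300 mM NaCl, 1 mM TCEP. Glutathione donor and nickel acceptor beads; 1 h, 37 °C, dark.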
# TRPV1 PAM – potentiators of human vanilloid receptor 1 (TRPV1) | AID 540277 | 320,000 tested, 0.02% active | Q8NER1 | TRPV1-expressing cells, Fluo-8 calcium influx, capsaicin EC20 potentiation; host cell line not named in the record; control for the full effect not named in the record | potentiation, % at 8.33 µM; active means potentiation above 80%; inconclusive means 30% to 80%; inactive means below 30%; note: 0% is about no effect
#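 Cells expressing TRPV1 were dye-loaded with Fluo-8 and read kinetically: 10 s baseline, 3 min after compound (agonist portion), then 2 min after EC20 capsaicin (allosteric enhancer portion). Calcium-bound dye fluorescence at 480/520 nm.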
# PINK1 expr mod – modulators of PINK1 expression. 410,000 tested, 0.2% active. AID 624263. PINK1 immunofluorescence, high-content cytometry, 24 h. Potency, µM (highest dose often 76.6 µM), inactives show at the highest dose activation (PINK1 increase), usual class: activators; active = well fitted activation curve with a large enough effect; inconclusive = small, poorly fitted or top-dose-only effect; inactive = flat fitted curve, though single readings scatter; cell line not stated here;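 note: potency is the fitted concentration of half-maximal effect; % of control where 0% means no effect; nearly all actives have a fitted effect of over 65% in size; a mitochondrial uncoupler was the plate control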
#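 Stable cell line treated 24 h with compounds at 5 concentrations (CCCP controls), then fixed and immunostained for PINK1 plus nuclear and cell stains; PINK1 immunofluorescence quantified by laser-scanning microplate cytometry.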
# CtBP-E1A blk – CtBP/E1A binding inhibition; AlphaScreen GST-E1A/His-CtBP binding, 1536-well; stronger effect = lower value; control for the full effect not named in the record; activity change, % (test concentration not listed); 340,000 tested, 0.49% active; in the data active means activity change below about -65%; inconclusive means about -30% to -65%; inactive means above about -30%; note: % is set by controls: 0 for no effect and ±100 for the full control effect; compound concentration not given in the record
#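 Homogeneous bead-based format: GST-tagged E1A captured on glutathione donor beads, His-tagged CtBP on nickel acceptor beads; compounds precede bead addition by 2 h at 37 °C.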
# An asterisk follows results filed as active; u = inconclusive; x = no result given; [ ] = remark or other dose.
SMILES,Sfp inh,D2 PAM,D2 ag,Six1-Eya2 inh,TRPV1 PAM,PINK1 expr mod,CtBP-E1A blk
COc1ccc(N=Cc2cc3c(cc2O)OC(N)=C(C#N)C3c2ccccc2)cc1 (centres undefined),5%,0,4.2,-9,-4,-1.3%,2
COC(CNC(=O)c1cccc(-n2c(=S)[nH]c3cc(Cl)ccc3c2=O)c1)OC,-10%,-12,0.6,1,3,-0.1%,14
COc1ccc(/C=N/NC(=O)CCSc2nc3ccccc3s2)cc1,5%,-2,-4.7,-8,19,0.8%,-16
CCOC(=O)c1c(C)n(C)c2cc(CN(C)C)c(O)c(S(=O)(=O)c3ccccc3)c12,15%,-1,4.2,1,6,-0.7%,-1
CC1(C)OC2OC(C(=O)N/N=C/c3cc(Br)ccc3O)C3OC(C)(C)OC3C2O1 (centres undefined),3%,-10,-1.3,-82*,19,1.1%,-90*
CSc1ncccc1C(=O)Nc1nc2ccc(F)cc2s1,5%,-6,-6.4,-9,-31,4.6%,2
CCCCCCCOc1ccc(C(=O)Nc2cccnc2)cc1,22%,-6,0.5,-3,-5,6.3%,7
Cc1[nH]n(-c2ccccc2)c(=O)c1N=Nc1ccc(C(=O)O)cc1,2%,-14,1.0,-3,0,-0.6%,-4
Cc1cc(C)c2nc(NNC(=O)c3ccc(S(=O)(=O)N4CCCCC4)cc3)sc2c1,u,-9,-3.9,-2,-1,4.3%,-4
CCCCc1nc2cc(C(=O)N3CCNC(=O)C3CC(=O)OC)ccc2o1 (centres undefined),10%,15,-1.6,7,24,-0.1%,6
O=C1CC(c2ccco2)Sc2ccccc2N1 (centres undefined),-23%,0,10,-4,-20,1.9%,0
CCc1noc(C)c1C(=O)Nc1nc(-c2ccccc2)c(C(C)=O)s1,x,0,3.0,-1,8,5.3%,0
CCOC(=O)c1c(C)c(C(=O)Nc2cc(OC)ccc2OC)c(C)n1CC,2%,3,-0.9,u,-6,11%[38.3 µM],-30
Cc1ccc(NS(=O)(=O)c2ccc(NC(=O)c3cccs3)cc2)cc1,21%,9,0.4,-7,x,2.3%,0
CC(C)N1CCN(S(=O)(=O)c2ccc3ccccc3c2)CC1,u,-18,-2.3,-3,0,0.1%,x
O=C1CSC(=S)N1/N=C/C=C/c1ccccc1,-8%,-6,-3.9,-15,4,-1.4%,-28
Cc1ccc(S(=O)(=O)Oc2cccc(N3C(=O)C4CC=CCC4C3=O)c2)cc1 (centres undefined),18%,2,-1.8,27,5,-0.4%,2
COc1ccc(-n2c(=O)c3c4c(sc3n(CC(=O)NCc3ccco3)c2=O)CCC4)c(OC)c1,-8%,-22,-2.3,-15,-1,0.2%[38.3 µM],-13
CCOc1ccc2nc(SC3CC(=O)N(c4ccc(C)cc4)C3=O)sc2c1 (centres undefined),7%,-1,-1.3,6,5,6.4%[38.3 µM],10
Cc1cccc(NC(=S)N(CCCN2CCOCC2)Cc2cn(C)c3ccccc23)c1,-1%,-16,-4.9,2,-9,-3.3%,-3
COc1ccc(-n2nc3ccc(NS(C)(=O)=O)cc3n2)cc1Cl,17%,u,4.1,-6,-8,5.7%,4
O=C(CCNS(=O)(=O)c1cccs1)N1CCN(c2ccc(F)cc2)CC1,6%,-6,1.2,5,-7,3.5%,1
CC(=O)c1ccc(OC2(C)CCN(Cc3ccc(OC(F)(F)F)cc3)C2)cc1 (centres undefined),x,-18,5.6,-2,x,3.6%,-1
CCOC(=O)CC(NC(=O)Cc1ccccc1)c1ccccc1Cl (centres undefined),-16%,-6,-4.3,7,-4,-0.7%,10
CC(C)Cc1ccc(S(=O)(=O)Nc2cccnc2)cc1,11%,-2,5.6,-2,-13,-0.9%,-7
O=C(O)c1cccc(CSc2nnc(-c3cccnc3)o2)c1,6%,-15,-4.5,10,5,-0.9%,x
COc1ccc(OCCNC(=O)C(Cc2c[nH]c3ccccc23)NC(C)=O)cc1 (centres undefined),3%,-8,4.4,0,10,0.1%,-10
Cc1nn(-c2ccccc2)c(C)c1/C=N/NC(=O)CSc1nnc(SCc2cccc3ccccc23)s1,17%,-1,5.0,2,17,-0.1%,-8
O=C(Nc1cccnc1Cl)c1cccnc1Cl,0%,-5,-2.1,-1,1,0.2%,5
CC(C)Oc1cccc(C(=O)NC(=S)NCc2cccnc2)c1,6%,11,3.1,-3,6,1.3%,-6
CCNC(=S)NNC(=O)Cn1nc(C)cc1C,1%,-14,-2.7,1,-17,u,2
CCCc1nnc(NC(=O)CCC(=O)N2CCC(Cc3ccccc3)CC2)s1,8%,-9,-4.7,4,-12,-1.4%,x
O=C(Nc1cccnc1)c1ccc(CN2CCc3ccccc3C2)cc1,-4%,-36,-0.8,-1,16,1.7%,-7
COc1cc(C(=O)OCc2cc(=O)oc3c(C)c(C)ccc23)ccc1OC(F)F,-5%,-1,-2.7,4,-6,12%,9
Cc1cc2cc3c(N)[nH]nc3nc2cc1C,7%,-6,1.9,-1,-10,-3.0%,-2
O=c1ccc(S(=O)(=O)N2CCCC2)c[nH]1,x,0,-0.9,11,x,1.3%,x
Cc1nn(CC(=O)NCCN2CCCCCC2)c(=O)c2nn(-c3ccccc3)c(C)c12,13%,-10,-2.5,-3,u,0.0%,-6
CC(=O)Nc1ccc(-c2cc(C(=O)O)c3ccccc3n2)cc1,-1%,-11,3.1,2,-21,2.4%,-5
O=C(OCC(=O)c1ccc[nH]1)c1ccc(C(F)(F)F)cc1,x,2,0.4,-2,x,1.7%,-4
c1ccc(-c2cc3cc4c(cc3cn2)OCO4)cc1,x,-13,-2.5,12,x,1.0%,22
COCc1ccc(C(=O)NC(C)c2cnn(-c3ccccc3C)c2C)o1 (centres undefined),3%,-5,-0.7,-2,2,-0.2%,0
CCN(CC(=O)Nc1cccc(OC)c1)CC(=O)Nc1ccc(C)cc1Cl,-22%,-2,1.9,-3,7,-0.3%,1
O=C(NCCN1CCOCC1)c1sc2cc(Cl)ccc2c1Cl,17%,-17,-7.6,-2,-5,3.3%,-10
COCc1cc(=O)[nH]c(/N=C(\N)Nc2ccc(C)cc2C)n1,-1%,-6,4.8,-4,-2,0.3%,x
O=C1CN(S(=O)(=O)c2ccccc2)CCN1,x,-3,-1.1,1,x,-0.7%,-1

# Single records (already shown). Order of screens: Sfp inh	D2 PAM	D2 ag	Six1-Eya2 inh	TRPV1 PAM	PINK1 expr mod	CtBP-E1A blk
# COCc1ccc(C(=O)NC(C)c2cnn(-c3ccccc3C)c2C)o1 (centres undefined) across the screens: 3%	-5	-0.7	-2	2	-0.2%	0
# COc1cc(C(=O)OCc2cc(=O)oc3c(C)c(C)ccc23)ccc1OC(F)F across the screens: -5%	-1	-2.7	4	-6	12%	9

# Next entries.
SMILES,Sfp inh,D2 PAM,D2 ag,Six1-Eya2 inh,TRPV1 PAM,PINK1 expr mod,CtBP-E1A blk
O=C(Nc1cccc(-c2cn3cccnc3n2)c1)c1ccco1,-13%,-7,-1.0,-19,-11,3.0%[38.3 µM],-23
Cc1ccc(NC(=O)Cc2nnc(SCC(=O)Nc3ccc(N4CCOCC4)cc3)n2C)cc1,21%,2,0.1,7,12,-2.8%,-18
Cc1cc(C)c(C#N)c(SCc2ccccc2[N+](=O)[O-])n1,-6%,-17,-2.6,-2,10,4.5%,-6
CC1CN/C(=C\C(=O)c2ccccc2)C(=O)N1 (centres undefined),19%,-4,0.5,-9,6,-0.4%,-1
Cn1c(=O)c2c(ncn2CCNC2=NCCCCC2)n(C)c1=O,17%,2,1.4,-1,4,-0.2%,-3
COc1ccc(CNc2oc(COc3ccccc3)nc2C#N)cc1,-8%,-2,1.9,15,6,1.7%,19
O=C1NCCCC1C(=O)N/N=C/c1ccccc1O (centres undefined),-4%,3,0.9,u,5,-1.2%,-71*
O=C(CN1CCN(Cc2ccccc2)CC1)Nc1ccc2c(c1)CCC2,13%,-17,-2.2,-2,-1,3.4%,-5
Cc1nn(C)cc1C(C)NC(=O)c1cc(COc2c(F)cccc2F)on1 (centres undefined),1%,1,-0.5,0,-2,1.9%,10
Cc1nonc1C(=O)N1CCCC(Nc2ccc(C(C)C)cc2)C1 (centres undefined),10%,-1,2.1,-1,-16,1.5%,x
CN(C)CCCN(C(=O)c1ccc(S(=O)(=O)N(C)Cc2ccccc2)cc1)c1nc2cc3c(cc2s1)OCO3,u,-7,8.0,u,9,-0.9%,-29
COc1ccc(NC(=O)C2CCC(N3C(=O)C4CCCCC4C3=O)CC2)cc1 (centres undefined),20%,-8,-2.0,7,-1,6.8%,-1
CCOC(=O)Cn1c(=O)n(C2CCCC2)c(=O)c2ccccc21,6%,7,0.3,6,-20,1.9%,10
CCC(CO)Nc1ccc(-c2nn(C)c(=O)c3ccccc23)cc1[N+](=O)[O-] (centres undefined),1%,-4,-4.2,1,-3,-0.2%,-6
CN(C)CCNc1nc(Oc2cccc(F)c2)c2sccc2n1,x,-9,-4.0,1,x,0.2%,-6
CC(OC(=O)C1CC(=O)N(Cc2ccco2)C1)C(=O)Nc1cccc(C#N)c1 (centres undefined),x,10,-2.2,0,6,1.9%,1
COc1ccccc1C(=O)NC(=O)COC(=O)c1cccc(OC(F)F)c1,x,9,0.4,7,4,-0.4%,-5
CCOc1ccccc1NC(=O)c1cc(-c2cc(OC)c(OC)c(OC)c2)nc2ccccc12,0%,14,13,-10,6,1.3%,-1
Cc1ccc(NC(=O)COC(=O)Cc2csc(-c3ccc(Cl)cc3)n2)cc1C,-5%,-4,2.4,14,-11,7.3%,1
COc1ccc(C)cc1S(=O)(=O)Nc1cc2c3c(c1)CCC(=O)N3CCC2,x,-66,-1.6,-11,-9,-1.5%,4
CC1CC(N(C(=O)c2ccc(Cl)cc2)c2ccccc2)c2ccccc2N1C(=O)c1ccco1 (centres undefined),2%,-7,-1.8,-13,-1,14%,0
Cc1nn(C)c(C)c1S(=O)(=O)NC1CCCc2ccccc21 (centres undefined),5%,-52,-1.0,0,13,-1.4%,21
Cc1cc(N2CC(C)OC(C)C2)n2cc(-c3ccccc3)nc2n1 (centres undefined),16%,-1,1.0,-4,u,-0.6%,-1
Cc1cc2ccccc2n2c(SCC(=O)NCC3CCCO3)nnc12 (centres undefined),11%,-5,-1.3,-1,8,2.5%,1

# Grouped by structure: those above with a nitro group on carbon
SMILES,Sfp inh,D2 PAM,D2 ag,Six1-Eya2 inh,TRPV1 PAM,PINK1 expr mod,CtBP-E1A blk
Cc1cc(C)c(C#N)c(SCc2ccccc2[N+](=O)[O-])n1,-6%,-17,-2.6,-2,10,4.5%,-6
CCC(CO)Nc1ccc(-c2nn(C)c(=O)c3ccccc23)cc1[N+](=O)[O-] (centres undefined),1%,-4,-4.2,1,-3,-0.2%,-6
